GLA inh pH 4.5 – inhibitors of human alpha-galactosidase A at pH 4.5 | purified enzyme, 4-MU-alpha-Gal fluorescence, pH 4.5 | activity change, negative = inhibition, % at 105 µM | 230,000 tested, under 10 active | AID 1467; inconclusive = small, poorly fitted or top-dose-only inhibition, or a rising curve; inactive = flat fitted curve, though single readings scatter; no compound was filed as active;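 also: 0% = full activity with enzyme and -100% = basal without enzyme; dose as in the result columns while the protocol names 77 µM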
Target sequence (P06280 whole entry, looked up): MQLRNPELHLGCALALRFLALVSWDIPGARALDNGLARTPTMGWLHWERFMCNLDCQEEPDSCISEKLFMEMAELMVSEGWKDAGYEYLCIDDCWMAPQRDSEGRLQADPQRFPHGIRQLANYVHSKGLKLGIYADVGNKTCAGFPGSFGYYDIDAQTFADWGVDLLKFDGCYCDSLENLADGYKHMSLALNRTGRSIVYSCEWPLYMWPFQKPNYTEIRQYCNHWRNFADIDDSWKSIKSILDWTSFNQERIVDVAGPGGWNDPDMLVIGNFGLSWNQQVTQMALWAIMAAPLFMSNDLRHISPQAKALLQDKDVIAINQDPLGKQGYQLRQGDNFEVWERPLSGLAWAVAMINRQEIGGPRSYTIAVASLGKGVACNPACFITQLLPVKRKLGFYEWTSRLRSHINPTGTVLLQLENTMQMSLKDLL
Rango-impB inh – prevents formation of the Rango-importin beta complex | Q14974 | Rango CFP/YFP FRET sensor + importin beta, 45 min | Potency, µM (doses to about 92.2 µM), for inactives: top-dose inhibition of complex formation | 0.031% of 340,000 active; active = rising FRET ratio curve, often small or poorly fitted; inconclusive = mostly compound fluorescence or quenching in the first reads; inactive = flat curves in all reads;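 also: potency is read from the fitted curve at half-maximal effect; 0% = DMSO wells and 100% = buffer wells lacking importin beta; nearly all actives have a fitted effect of over 15% in size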
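FRET biosensor Rango (snurportin 1 IBB between N-terminal EYFP and C-terminal Cerulean), 50 nM in PBS/1 mM DTT/0.02% Tween-20/0.1% BSA, preincubated 5 min RT with compound; 0.125 microM importin beta added, 45 min RT, CFP/YFP FRET ratio read.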
Rango release inh – prevents RanGTP from dissociating the Rango-importin beta complex | O95149+P62826 | Biochemical FRET Rango-importin beta, RanGTP-induced dissociation | Potency, µM (highest dose often 46.1 µM), for inactives: at the top dose activity change, negative = inhibition | 0.071% of 340,000 active; active means falling FRET ratio curve, often poorly fitted, with flat reads before Ran was added; inconclusive means other falling curves, or compound fluorescence or quenching; inactive means flat or rising ratio curve;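 also: potency is read from the fitted curve at half-maximal effect; % of control where 0% means no effect; nearly all actives have a fitted effect of over 45% in size; -100% = wells without RanGTP and RCC1; the record marks most hits as doubtful in a second field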
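Recombinant Rango FRET biosensor (EYFP–snurportin 1 IBB–cerulean CFP10) at 0.1 uM premixed with 0.25 uM importin beta in PBS, 1 mM DTT, 0.02% Tween-20, 0.1% BSA. Compound added 5 min; RanGTP-RCC1 (0.6 uM Ran, 2 mM GTP, 0.2 uM RCC1) then triggers release, read at 45 min.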
miR-21 FLuc – raises the signal of a miR-21 reporter; 340,000 tested, under 10 active; AID 2288; HeLa miR-21 FLuc reporter, luciferase, 48 h; Potency, µM (series often up to 38.3 µM), for the others: at the highest dose reporter change, positive = more light; active = well fitted rising curve with a large enough effect; inconclusive = small, poorly fitted or top-dose-only effect; inactive = no such curve, though single readings can be large or run the other way;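 also: % of control where 0% means no effect; miR-21 action dims this reporter so a rising signal means less miR-21 action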
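Compounds were titrated across several concentrations (up to approximately 40 uM) and incubated 48 hours with HeLa miR-21-FLuc reporter cells (miR-21 target sequence downstream of FLuc, endogenous miR-21). Readout was firefly luciferase luminescence after lytic detection reagent.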
Active calls of the source: *; ? = inconclusive; / = not tested or not shown; & = joins results of further samples. Not all compounds are listed. The share of hits here may be higher or lower than overall.

Start of the listing, in advance (2 entries):
SMILES | GLA inh pH 4.5 | Rango-impB inh | Rango release inh | miR-21 FLuc
Cc1ccccc1-n1nnnc1SCC(=O)N(C)C1CCS(=O)(=O)C1 (stereo not given) | -6 | 0.2% | -13% | 2%
Cc1cc2ncn(CC(O)COc3cccc(C(=O)O)c3)c2cc1C (stereo not given) | 3 | 2.8% | 7% | -2%

Results, repeating the preview:
SMILES | GLA inh pH 4.5 | Rango-impB inh | Rango release inh | miR-21 FLuc
Cc1ccccc1-n1nnnc1SCC(=O)N(C)C1CCS(=O)(=O)C1 (stereo not given) | -6 | 0.2% | -13% | 2%
Cc1cc2ncn(CC(O)COc3cccc(C(=O)O)c3)c2cc1C (stereo not given) | 3 | 2.8% | 7% | -2%
CC(C)CNS(=O)(=O)c1cc(C(=O)OCC(=O)N(C)C2CCS(=O)(=O)C2)c(Cl)cc1Cl (stereo not given) | -1 | 0.9% | -15% | 6%
Cc1ccc(C)c(NC(=O)c2ccccn2)c1 | -19 | 2.4% | 22% | -28%
CCOC(=O)C1=C(C)NC(C)=C(C(=O)OC)C1c1ccco1 (stereo not given) | -2 | 0.4% | 1% | 0%
O=c1c2ccccc2nnn1CSc1nnc2ccccn12 | 0 | 5.1% | 7% | -42%
COC(=O)c1cccc(S(=O)(=O)N2CCOCC2)c1 | -19 | -2.4% | 2% | 1%
COc1cccc(C(=O)NC2CCCC2)c1 | 9 | 0.1% | 2% | -19%
C/C(CC(=O)NCCCN1CCOCC1)=N\NC(=O)COc1ccc(C)cc1 | 2 | -4.6% | -14% | -13%
CC12CCC(C(=O)NCc3cccnc3)(OC1=O)C2(C)C (stereo not given) | -7 | -1.1% | 0% | 2%
FC(F)(F)c1cnc(Sc2ncn[nH]2)c(Cl)c1 | -1 | 4.2% | 0% | 0%
CCOC(=O)N(Cc1ccccc1)C(C(=O)O)C(C(=O)O)N(Cc1ccccc1)C(=O)OCC (stereo not given) | 2 | ? | 20% | 2%
Cc1nn(Cc2ccccc2)c(C)c1NC(=O)CSc1nc(C2CC2)nc2c1cnn2-c1ccccc1 | -1 | 1.0% | 2% | -1%
COC(=O)c1cccc(NC(=O)c2nn(C(C)C)c(=O)c3ccccc23)c1 | -3 | 0.4% | 18% | -8%
O=C(NNC1=NCCC1)c1cccc(S(=O)(=O)N2CCOCC2)c1 | -21 | 1.7% | -26% | 0%
O=c1c2ccccc2ncn1/N=C/c1ccccc1 | / | 0.7% | -9% | -59%
COc1ccc(-c2cc3ccccc3oc2=O)cc1NC(=S)NC(=O)c1ccc2c(c1)OCCO2 | 4 | -3.2% | 6% | -47%
CCc1ccc(-n2c(CSc3nnnn3-c3ccccc3)nc3ccccc3c2=O)cc1 | 1 | 2.6% | 24% | 0%
COc1nc(-c2ccccc2)c2cc(Br)ccc2n1 | / | 5.7% | 3% | /
CC(NCC(=O)Nc1ccccc1C(=O)NC1CC1)c1ccc(S(N)(=O)=O)cc1 (stereo not given) | / | 0.0% | 16% | /
COc1ccccc1NS(=O)(=O)c1cccc2cccnc12 | -7 | 1.3% | 11% | -3%
CCCN1C[C@H](CSC)C[C@@H]2c3cccc4[nH]cc(c34)C[C@H]21 | -8&-1&6 | ? | -8% | 5%
Cc1cccc(NC(=S)N(CCCN2CCOCC2)C(C)c2cc3ccccc3o2)c1C (stereo not given) | -1 | -2.8% | 9% | 1%
CCCCNC(=O)[C@@H]1CSC2c3ccccc3C(=O)N21 (stereo not given in full) | / | 0.1% | 7% | -4%
COc1ccc(CN2CCNC(=O)C2CC(=O)N(C)CCc2cnn(C)c2)c(F)c1 (stereo not given) | / | -2.5% | -1% | 2%
CN(c1cccc(NC(=O)c2ccccc2N(C)S(=O)(=O)c2ccccc2)c1)S(C)(=O)=O | 5 | 1.6% | 3% | -2%
COc1ccc(OC)c(NC(=O)CSC2=NCCS2)c1 | 0 | -2.7% | -2% | -4%
CCCCOc1cccc(C2C(C(=O)c3cccs3)=C(O)C(=O)N2Cc2cccnc2)c1 (stereo not given) | 1 | -2.5% | -3% | -8%
Cc1cc(S(=O)(=O)c2ccc([N+](=O)[O-])cn2)ccc1Br | / | -0.5% | 10% | /
Cc1nnc(NC(=O)CN2CC(C)OC(C)C2)s1 (stereo not given) | / | 0.0% | -2% | 0%
CC1(C(=O)O)CC(C)(C(=O)O)CC(C)(C(=O)O)C1 (stereo not given) | 0 | 0.4% | 12% | -1%
CNc1nc(C)c(C(=O)OCC(=O)OC)s1 | -11 | -2.8% | 11% | -10%
COc1ccc(/[N+]([O-])=C/c2ccco2)cc1 | / | 1.1% | 1% | /
O=c1oc2ccccc2cc1-c1ccc(O)cc1O | 0 | 1.8% | -1% | -14%
O=C(O)C(=O)/C(=C\c1cccc(Cl)c1)c1ccc2ccccc2n1 | 26 | ? | ? | -59%
CN(C)C(CNC(=O)c1oc2ccccc2c1CSc1ncn[nH]1)c1ccco1 (stereo not given) | 2 | 0.7% | -7% | -1%
CCOC(=O)c1ccc(COC(=O)CCc2nc(-c3ccccc3)c(-c3ccccc3)o2)cc1 | -2 | 0.1% | -9% | 0%
O=C(Nc1cccnc1Cl)c1ccc(Cl)c([N+](=O)[O-])c1 | 3 | -1.0% | 16% | -2%
OC(c1ccc(Cl)cc1Cl)C(Cc1cccnc1)n1cncn1 (stereo not given) | 5 | 3.6% | 2% | 0%
CC1CCCCN1N=Nc1nc2c([nH]1)c(=O)n(C)c(=O)n2C (stereo not given) | / | -0.2% | 1% | /

Reprinted at random: four compounds from above, in no set order.
SMILES | GLA inh pH 4.5 | Rango-impB inh | Rango release inh | miR-21 FLuc
COc1ccc(/[N+]([O-])=C/c2ccco2)cc1 | / | 1.1% | 1% | /
OC(c1ccc(Cl)cc1Cl)C(Cc1cccnc1)n1cncn1 (stereo not given) | 5 | 3.6% | 2% | 0%
CC1CCCCN1N=Nc1nc2c([nH]1)c(=O)n(C)c(=O)n2C (stereo not given) | / | -0.2% | 1% | /
CCOC(=O)c1ccc(COC(=O)CCc2nc(-c3ccccc3)c(-c3ccccc3)o2)cc1 | -2 | 0.1% | -9% | 0%

Continued:
SMILES | GLA inh pH 4.5 | Rango-impB inh | Rango release inh | miR-21 FLuc
COc1ccc(/C=C2\CCc3ccccc3C2=O)c(OC)c1OC | -1 | 0.0% | 4% | -46%
O=C1c2ccc3c4c(ccc(c24)C(=O)N1c1cccc(O)c1)C(=O)N(c1cccc(O)c1)C3=O | 4 | 3.4% | ? | 21%
Cc1ccc(NC(=S)N(CCN2CCOCC2)Cc2ccccc2F)cc1 | 10 | -3.2% | -6% | 1%
CCOc1ccc(CCNC(=O)Cn2ncn3nc(-c4ccc(OC)cc4)cc3c2=O)cc1 | / | 0.0% | 1% | -1%
CC1CN(C(=O)CCNC(=O)c2ccc(Br)cc2)CC(C)O1 (stereo not given) | / | -0.8% | 0% | /
O=C(NNC1=NCCCCC1)Nc1cccc(Cl)c1 | 2 | -1.8% | -1% | -46%
CC(C)CN(CC(C)C)S(=O)(=O)N1CCC(C(=O)NCc2ccccn2)CC1 | 3 | -1.9% | -3% | 1%
COc1cccc(NC(=O)CSc2nc(N)cc(N)n2)c1 | 3 | -1.8% | 1% | -8%
CC(=O)Nc1ccc(NC(=O)c2cc(-c3cc(C)c(C)cc3O)n[nH]2)cc1 | / | -0.5% | -6% | -10%
Cc1ccccc1NC(=O)COC(=O)c1ccc2nc(C)c(C)nc2c1 | / | -0.4% | 1% | /
CC(=O)Nc1sc(N/N=C/c2ccccc2)nc1-c1ccc(C)cc1 | -5 | 1.1% | 7% | -20%
CC(C)(C)NC(=O)/C=N/O | 1 | -1.2% | 9% | -3%
C=CCn1c(N)cc(=O)nc1SCC(=O)Nc1ccccc1C(N)=O | 6 | 5.5% | 3% | -4%
Cn1c(=NC(=O)C2CCN(S(=O)(=O)c3cccs3)CC2)sc2ccccc21 | -5 | 5.8%&3.4% | -6%&5% | -5%
COc1c(NC(C)=O)c2ccccc2c2ccccc12 | -3 | -0.1% | 1% | 7%
CC1(C)CC(=O)C(C=NCCN2CCNC2=O)=C(O)C1 | 3 | -3.3% | 22% | -4%
O=C1COc2ccc(C(=O)COC(=O)COc3ccccc3[N+](=O)[O-])cc2N1 | -9 | -0.9% | -5% | 1%
CCC1CCC/C1=N\NC(=O)c1ccoc1C (stereo not given) | / | -1.3% | 10% | -57%
CC1CCN(CC(=O)NNC(=O)c2cccc(Br)c2)CC1 | / | -2.4% | 2% | -2%
Cc1ccccc1NC(=O)CCC(=O)OCCCC(F)(F)C(F)(F)F | 5 | 2.8% | -2% | -1%
CCOC(=O)c1c(NC(=O)C2CCCN(S(=O)(=O)c3ccc(C)cc3)C2)sc2c1CCCC2 (stereo not given) | 0 | -3.6% | 13% | 2%
Cn1c(SCC(=O)Nc2ccc3nc(SCC(=O)NC4CC4)sc3c2)nnc1-c1ccccc1 | 4 | 0.0% | 3% | -1%
NS(=O)(=O)c1ccc(CCNC(=O)CSCc2ccccc2)cc1 | 5 | -7.1% | -11% | 0%
Cc1cccc(OCC(=O)Nc2ccc3c4c(cccc24)CC3)c1C | -2 | -0.1% | 25% | -7%
O=C(O)C1=C[C@H](c2coc3ccccc3c2=O)C[C@H](OCc2ccc(CO)cc2)O1 | -8 | -1.5% | 11% | -3%
Cc1cc(C)c(OCC(=O)Nc2nc3ccccc3[nH]2)c(C)c1 | 7 | 3.7% | -14% | -2%
Cc1ccc([N+](=O)[O-])cc1NC(=S)NC(=O)c1cccs1 | 1 | 3.3% | -16% | -8%
Cc1cc(NC(=O)CCC(=O)N(Cc2ccccc2)C(C(=O)NC2CCCC2)c2ccc(C)o2)no1 (stereo not given) | / | 0.8% | 1% | 13%
O=C(CSc1ccc2ccccc2n1)Nc1ccc(N2CCOCC2)cc1 | 5 | -0.2% | 1% | -43%
CC1=NN(c2ccc(C(=O)O)c(N)c2)C(=O)C1 | -4 | 3.9% | 8% | -6%
C[C@H]1CN(S(=O)C(C)(C)C)[C@@H](CCO)/C1=C\CCO (stereo not given in full) | / | -2.5% | 0% | /
CC(c1ccccc1F)n1cc(C(=O)NCc2ccncc2)nn1 (stereo not given) | 1 | 5.4% | 1% | 1%
COc1cc(CN2CCCC(C)C2)ccc1OCc1ccccc1 (stereo not given) | / | -0.1% | 6% | -20%
O=C(NCCc1nc(-c2ccccc2)no1)c1ccccc1 | / | 1.4% | 0% | /
COc1ccccc1CCNC(=O)C(=O)NCC1OCCN1S(=O)(=O)c1ccc(OC)c(OC)c1 (stereo not given) | / | -2.4% | ? | 1%
O=C(C[C@H]1C[C@H](C(=O)N2CCCCC2)[C@@]2(CCc3ccccc3)c3[nH]c4ccc(Cl)cc4c3CCN2C1=O)NCCN1CCOCC1 | / | ? | ? | /
Nc1ccc(C(=O)OCc2nc3cc4ccccc4cc3[nH]2)cc1 | 4 | -0.2% | 2% | 10%
COc1cccc(/C=C/C(=O)N2CCN(S(=O)(=O)c3ccccc3)CC2)c1OC | 7 | -1.1% | 12% | -6%
CCN1CCCc2cc(CN(CCN3CCOCC3)C(=S)Nc3cccc(OC)c3)ccc21 | -7 | -4.4% | 15% | 6%
CCOC(=O)C1CCCN(Cc2ccc(O)c(OC)c2)C1 (stereo not given) | -7 | 0.3% | 3% | 6%
O=C(NCc1ccco1)C(=O)NCC1OCCN1S(=O)(=O)c1ccc(Br)cc1 (stereo not given) | -1 | 4.3% | 7% | 1%
COc1ccc(S(=O)(=O)NCc2ccco2)c2ccccc12 | 3 | 2.6% | -11% | -8%
O=C(NCc1ccccn1)c1cccc(S(=O)(=O)Nc2ccc(F)cc2)c1 | / | 2.1% | 19% | /
Cc1ccc(C(=O)NCCSCc2ccc(Cl)cc2Cl)cc1[N+](=O)[O-] | 0 | -0.1% | 0% | -1%
Cc1cc(NC(=O)COC(=O)c2cccc(OCc3ccccc3)c2)no1 | -4 | -3.3% | -8% | -35%
Cc1cc(N/N=C/c2cccc(Cl)c2)nc(-n2nc(C)cc2C)n1 | -5 | -1.5% | -2% | 1%

Source: PubChem
